Marburg entry inh – blocks Marburg virus binding to or entry into cells | Marburg virus pseudotyped entry inhibition, cell reporter; control for the full effect not named in the record; about a third of the inactives were read at about 46 µM | Potency, µM (highest dose often 37.8 µM), inactives show top-dose activity change, negative = inhibition, actives largely listed as inhibitors | hit rate 1.8% among 300,000 | AID 540276; active = well fitted inhibition curve with a large enough effect; inconclusive = small, poorly fitted or top-dose-only effect, or effect the other way; inactive = flat fitted curve, though single readings scatter; tested in HEK293 cells; about a fifth of its hits are not listed in these tables; note: % is set by controls: 0 for no effect and ±100 for the full control effect; luciferase read-out
LASV entry inh – Lassa virus entry inhibition; Lassa virus pseudotype entry inhibition, cell reporter; control for the full effect not named in the record; Potency, µM (titrated, usually from 37.9 µM), for the others: top-dose activity change, negative = inhibition, actives largely listed as inhibitors; hit rate 1.2% among 300,000; active means well fitted inhibition curve with a large enough effect; inconclusive means small, poorly fitted or top-dose-only effect, or effect the other way; inactive means flat fitted curve, though single readings scatter; tested in HEK293 cells; note: % is set by controls: 0 for no effect and ±100 for the full control effect; nearly all actives have a fitted effect of over 50% in size; luciferase read-out
Cruzain inh Det – inhibitors of Trypanosoma cruzi cruzain with detergent; AID 1478; Potency, µM, inactives show max response, negative = inhibition, actives largely listed as inhibitors; purified cruzain, Z-FR-AMC fluorescence, 0.01% Triton; hit rate 0.43% among 200,000;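 note: plate controls were neutral wells for no effect and buffer without enzyme for full effect; nearly all actives have a fitted effect of over 40% in size; top concentration of the series not given in the record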
Target sequence (P25779 123-467 limits assumed): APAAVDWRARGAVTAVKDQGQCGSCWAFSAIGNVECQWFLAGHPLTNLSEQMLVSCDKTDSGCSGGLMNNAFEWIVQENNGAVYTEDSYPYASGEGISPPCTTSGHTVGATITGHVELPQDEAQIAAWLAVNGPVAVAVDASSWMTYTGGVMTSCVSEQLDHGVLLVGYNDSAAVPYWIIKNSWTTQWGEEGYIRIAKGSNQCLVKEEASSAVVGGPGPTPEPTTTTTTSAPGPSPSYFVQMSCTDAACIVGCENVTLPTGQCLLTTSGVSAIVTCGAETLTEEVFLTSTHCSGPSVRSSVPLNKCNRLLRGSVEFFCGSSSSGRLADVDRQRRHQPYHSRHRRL
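Steps: dispense cruzain (1.5 nM final) in acetate buffer pH 5.5 with DTT and 0.01% Triton X-100; pin-transfer compounds; incubate 15 min RT; add Z-FR-AMC (2 uM final); read fluorescence every 30 s, using the 60 s intensity change.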
RE007 growth inh – less growth of the S. pombe RE007 Vpr strain; Potency, µM (top dose mostly 92.2 µM), without a hit: top-dose activity change, negative = less growth; AID 651644; hit rate 0.21% among 360,000; S. pombe RE007 Vpr strain, BacTiter-Glo ATP luminescence, 24 h; control for the full effect not named in the record; active = well fitted falling curve with a large enough effect; inconclusive = small, poorly fitted or top-dose-only effect; inactive = no such curve, though single readings can be large or run the other way;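 note: % is set by controls: 0 for no effect and ±100 for the full control effect; nearly all actives have a fitted effect of over 50% in size; the assay follows cell death caused by Vpr and the record does not say whether a fall means rescue or toxicity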
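Fission yeast RE007 carrying one integrated HIV-1 vpr copy, seeded at OD 0.01 in PMG+AL medium with 23 nL pinned compound. Grown 24 h at 30 degrees; viability read by BacTiter-Glo luminescence after 5 min.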
SARS PLpro yeast – inhibitors of SARS-CoV papain-like protease in yeast; S. cerevisiae expressing SARS-CoV PLpro, growth rescue; control for the full effect not named in the record; Potency, µM (top dose mostly 32.9 µM), for inactives: at the highest dose activity, positive = growth rescue; hit rate 0.19% among 330,000; active means well fitted rising curve with a large enough effect; inconclusive means small, poorly fitted or top-dose-only effect; inactive means no such curve, though single readings can be large or run the other way; note: 0% is about no effect; nearly all actives have a fitted effect of over 55% in size; growth read by luminescence after 48 h
StopGo reporter – lowers the luciferase signal of an FMDV 2A StopGo reporter. human cells with a luciferase reporter of 2A StopGo recoding; control for the full effect not named in the record. hit rate 1.2% among 410,000. Potency, µM (series often up to 57.9 µM), for the others: top-dose signal change, negative = less light; active = well fitted falling curve with a large enough effect; inconclusive = small, poorly fitted or top-dose-only effect; inactive = no such curve, though single readings can be large or run the other way; tested in HEK293T cells; note: % is set by controls: 0 for no effect and ±100 for the full control effect; nearly all actives have a fitted effect of over 45% in size; luciferase light after 4 h
Cruzain noTriton – inhibitors of Trypanosoma cruzi cruzain without detergent; P25779; purified cruzain, Z-FR-AMC fluorescence, no detergent; Potency, µM, without a hit: max response, negative = inhibition, most hits filed as inhibitors; hit rate 2.3% among 200,000;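 note: plate controls were enzyme without inhibitor for no effect and buffer without enzyme for full effect; nearly all actives have a fitted effect of over 40% in size; top concentration of the series not given in the record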
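Purified cruzain at 1.5 nM, pre-incubated 15 min with compound at room temperature in 100 mM sodium acetate pH 5.5, 5 mM DTT, 0.00005% Triton X-100. Reaction started with 2 uM Z-FR-AMC; AMC fluorescence increase over 60 s gives rate.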
NS1 inh – blocks influenza NS1 protein function; S. cerevisiae slowed by influenza A NS1, growth recovery by OD600; Potency, µM (doses to about 46.1 µM), without a hit: at the highest dose activity, positive = more growth; AID 2326; hit rate 0.4% among 270,000; active means well fitted rising curve with a large enough effect; inconclusive means small, poorly fitted or top-dose-only effect; inactive means no such curve, though single readings can be large or run the other way; note: nearly all actives have a fitted effect of over 50% in size
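In this qHTS, NS1 from influenza A is expressed in budding yeast, where it slows growth. Cells are switched from glucose to 2% galactose medium (pH 6.0, -URA), treated with compound, and growth recovery is read at OD600.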
* marks the source's active call; other numbers are inactive results; ? = inconclusive; . = no result given; & = joins results of further samples; [ ] = another dose, or the depositor's remark. Unless noted, calls come from the whole dose curve; as a rule, active = well fitted curve in the direction sought with a large enough effect; inconclusive = small, poorly fitted or top-dose-only effect, or another doubt; inactive = no such curve, though single readings can be large; an effect the other way counts as inactive or inconclusive. Potency is the fitted concentration of half-maximal effect.

item | molecule | Marburg entry inh | LASV entry inh | Cruzain inh Det | RE007 growth inh | SARS PLpro yeast | StopGo reporter | Cruzain noTriton | NS1 inh
1 | CCOc1ccc(-n2c(SCC(=O)c3c(N)n(C)c(=O)n(C)c3=O)nnc2-c2cccnc2)cc1 | ? | -2% | 0.6% | 4% | 4% | -12% | 22% | 3%
2 | O=[N+]([O-])c1ccc(Sc2ncc3ccccn23)nc1 | . | . | . | 25% | -1% | -4% | . | -6%
3 | Cc1ccc(C)c(N2C(=O)CC(N3CCN(Cc4ccc5c(c4)OCO5)CC3)C2=O)c1 (stereo unspecified) | ? | 2% | 12% | 18% | -21% | . | -4% | -40%
4 | O=c1cc(O)c(-c2ccccc2Cl)c(Cl)[nH]1 | -16% | -9% | 2.2% | -2% | 3%[6.58 µM] | -11% | ? | 10%
5 | Nc1cccc2cnccc12 | 6% | 8% | 1.0% | -3% | -6% | . | -14% | -1%
6 | O=C(CCCN1C(=O)c2ccccc2C1=O)Nc1nc2ccccc2[nH]1 | 22%[46.1 µM] | -1% | . | -21% | 0% | -7% | . | 12%
7 | O=[N+]([O-])c1ccc(/C=N/N=C/c2ccc([N+](=O)[O-])o2)o1 | ? | ? | . | ? | -20% | ? | . | .
8 | Cc1cc(C(=O)Nc2cccc3ccccc23)co1 | -2%[46.1 µM] | -14%[46.1 µM] | . | -17% | -3% | 32%[activator] | . | -20%
9 | CC(Cc1cccs1)NC(=O)CCCn1nnnc1CN1CCOCC1 (stereo unspecified) | -1% | 10% | . | -1% | -4% | -12% | . | -8%
10 | CCCC(C)C1(CC)C(=O)NC(=O)N=C1N (stereo unspecified) | -18% | ? | -1.0% | 4% | 7% | -22% | -4% | -7%
11 | CCCCNc1nc2c(S(=O)(=O)c3ccc(C)c(C)c3)nnn2c2ccsc12 | . | -19%[46.1 µM] | -1.1% | . | . | -1% | ? | .
12 | CCCCOC(=O)c1ccc(NC(=O)C(=O)NCCN(C)C)cc1 | . | . | . | 2% | 0% | 19% | . | 2%
13 | CCCCNC(=O)C1CCCNC1=O (stereo unspecified) | 7% | 14% | 3.1% | -13% | 9% | . | -3% | 2%
14 | COC(=O)C(O)(CC(=O)Nc1ccc(C)c(F)c1)C(F)(F)F (stereo unspecified) | 8% | ? | 2.8% | 17% | -1% | 0% | -3% | 3%
15 | Cc1nc(N2CCCC2)c2c(C(=O)N3CCN(c4ccccc4)CC3)c(C)oc2n1 | . | 6%[46.1 µM] | 1.2% | . | . | -1% | 2% | .
16 | Clc1ccccc1OCCn1nnc2ccccc21 | ? | ? | . | 0% | 4% | 39%[activator] | . | -23%
17 | CC(=O)Oc1ccc(C23c4ccccc4C2(OC(C)=O)c2cc(OC(C)=O)ccc23)cc1 (stereo unspecified) | ? | ? | . | 5% | . | ? | . | .
18 | O=C(NC1CCCCC1)C(=S)N1CCCC1 | 13%[46.1 µM] | -1%[46.1 µM] | . | ? | -1% | 10% | . | 8%
19 | Cc1ccc(C2CC(=O)C(C=NCCN3CCN(CC(=O)Nc4cc(C)cc(C)c4)CC3)=C(O)C2)cc1 (stereo unspecified) | . | . | . | 4% | -2% | -2% | . | 0%
20 | CCCCCC/C(C)=C1/SC(=S)NC1=O | -15% | 1% | -7.8% | ? | -6% | ? | -1% | -127%
21 | CC(=O)Nc1ccc(/C=N/Nc2nc3ccccc3[nH]2)cc1 | 1% | . | -28% | -9% | ? | 52%[activator] | ? | 0%
22 | Cc1ccc(C)c(NC(=O)CCCn2nc(C)c3sc4ccccc4c3c2=O)c1 | ? | ? | -1.4% | . | . | -26% | 4% | .
23 | CC(C)(C)c1ccc(C2=NC(=O)C(CC(=O)O)S2)cc1 (stereo unspecified) | -1%[46.1 µM] | -3%[46.1 µM] | . | 14% | 2% | ? | . | -1%
24 | O=C(NCCN1CCOCC1)c1cccc(Br)c1 | 19%[46.1 µM] | 20%[46.1 µM] | . | -10% | . | 0% | . | .
25 | Cc1ccc(C)c(N2CCN(C(=O)c3ccc(Cn4c(=O)[nH]c5ccccc5c4=O)cc3)CC2)c1 | ? | ? | -5.8% | 18% | -6% | ? | -3% | 15%
26 | Cc1ccc(S(=O)(=O)N2CCOCC2)cc1NC(=O)COC(=O)c1cccc(Cl)c1Cl | -20% | -1% | . | 0% | . | ? | . | .
27 | C=CCOc1ccccc1/C=c1\sc2nc(-c3oc4ccccc4c3C)nn2c1=O | 8% | -16%[14.3 µM] | . | 2% | . | 7% | . | 14%
28 | O=C(NCCc1csc2nc(-c3cccc(F)c3)nn12)c1ccc(Br)o1 | . | 2%[46.1 µM] | -4.7% | . | . | -23% | 9% | .
29 | Cc1cc(C)c2c(n1)nn1c(C)c(CCC(=O)NCc3ccco3)c(C)nc21 | 7% | -4% | -11% | -16% | 2% | -23% | 2% | -1%
30 | CCOc1cccc(N(C(=O)CNC(=O)c2ccco2)C(C(=O)NCC2CCCO2)c2ccccc2)c1 (stereo unspecified) | 17%[46.1 µM] | . | . | 10% | 0% | -18% | . | 0%
31 | O=C(O)CCc1nn2c3ccccc3n(CCO)c2nc1=O | ? | 5% | . | 1% | 0% | 14% | . | 4%
32 | CCN1CCN(C(=S)NCc2ccc(C)cc2)CC1 | ? | 5% | 2.5% | 4% | 8% | -10% | 1% | -4%
33 | O=C(COc1ccc([N+](=O)[O-])cc1)Nc1ccc(S(=O)(=O)N2CCOCC2)cc1 | 5%[46.1 µM] | ? | . | -6% | 0% | -3% | . | 12%
34 | Cn1c(CN2CCCC2)nc2cc(NS(=O)(=O)c3ccccc3)ccc21 | ? | -2% | 3.2% | 22% | 2% | . | 4% | 0%
35 | CC1=C(C)CC(C(=O)NCCCN2CCCC2=O)C(C(=O)O)C1 (stereo unspecified) | . | . | . | 20% | -7% | -18% | . | -4%
36 | CN(C)CCCC(=O)c1ccc2c(c1)OCO2 | 2% | 4% | -1.5% | -8% | 7% | -18% | 4% | -11%
37 | O=C(CC1Sc2ccccc2NC1=O)NNc1ccc(F)cc1 (stereo unspecified) | -38% | 2% | . | 288% | . | 14% | . | .
38 | Cc1ccc(C(=O)NCCc2nnc3c(C(F)(F)F)cc(Cl)cn23)o1 | . | . | . | -7% | -1% | 1% | . | 5%
39 | CCc1ccc(C(=O)COC(=O)CNC(=O)c2cccs2)cc1 | 19% | ? | -8.5% | -4% | -1% | 21% | -7% | 1%
40 | Cc1cc(C)nc(Nc2n[nH]c(COc3ccccc3)n2)n1 | ? | 21% | 0.9% | -25% | -6% | 39%[activator] | ? | -5%
41 | C=CCn1c(SCC(=O)Nc2ncc(Cc3cc(C(F)(F)F)ccc3Cl)s2)nnc1-c1ccncc1 | -5% | 24% | 2.6% | 0% | 0% | . | 8% | 13%
42 | O=C(Nc1cnc2ccccc2c1)c1cccnc1 | . | . | 1.0% | -7% | 4% | 6% | 4% | -10%
43 | COc1ccc(C2Nc3ccccc3C(=O)N2c2ccccc2)cc1CN1CCOCC1 (stereo unspecified) | -7% | -13% | . | -24% | 0% | 2% | . | 2%
44 | CCOc1ccccc1NC(=O)C(CC)Sc1nc2ccncc2[nH]1 (stereo unspecified) | -5%&-5%[46.1 µM] | -5%[46.1 µM] | -1.3% | -14% | 2% | -9%&-14% | 14% | 11%
45 | CCC1(CC)C(=O)NC(=O)NC1=S | 7% | -5% | . | 2% | . | -14% | . | .
46 | COc1cc(C2c3cc4c(cc3OC(N3CCOCC3)C2C)OCO4)cc(OC)c1OC(C)=O (stereo unspecified) | -22% | ? | . | 6% | . | -14% | . | .
47 | C=C(C)CSc1nc2ncccc2[nH]1 | 1% | 19% | 1.5% | -1% | -3% | 23% | -3% | -10%
48 | O=C(NCCc1ccco1)C(=O)NCC1OCCCN1S(=O)(=O)c1ccccc1 (stereo unspecified) | ? | 0% | . | -24% | -3% | -13% | . | 14%
49 | O=C(COC(=O)c1nc(Cl)c(Cl)c(Cl)c1Cl)c1ccc[nH]1 | -19% | -1% | . | -27% | -13% | -12% | . | .
50 | Cc1cccc2c1Sc1ccccc1CC2=O | 9% | 0% | -3.4% | -4% | -5% | -4% | -3% | -34%
